Assay outcomes from PubChem BioAssay.
A488 autofl: compound autofluorescence in A488 spectral region | compound autofluorescence, A488 spectral region, dye equivalency; hits give high values | max dye equivalency, M | 59,000 tested, 0.1% active | AID 591; active = above 10 nM dye equivalent; inconclusive = 1 to 10 nM; inactive = 1 nM or less; about half of its hits are not listed in these tables;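 also: highest value over a series up to 38 µM; compound alone in buffer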
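Read-out: relative fluorescence at 480/540 nm, expressed as Alexa 488 dye-equivalent concentration from a six-point A488 standard included per plate. Conditions: 100 mM Tris, pH 8.0; 15 min incubation, room temperature.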
Resorufin autofl: resorufin region autofluorescence | AID 588 | max dye-equivalent concentration, M | Compound fluorescence, resorufin region 547/598 nm, buffer; hits give high values | 59,000 tested, 0.04% active; active = above 10 nM dye equivalent; inconclusive = 1 to 10 nM; inactive = 1 nM or less; a few of its hits are not listed in these tables; also: highest value over a series up to 38 µM
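Dye-equivalent concentration values derive from comparing each well's 547/598 nm fluorescence against resorufin standards included on every plate. Incubation was 15 min at room temperature in 100 mM Tris, pH 8.0.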
AID923: qHTS Assay for Allosteric/Competitive Inhibitors of Caspase-1: Spectroscopic Profiling in AFC Spectral Region; compound fluorescence, AFC spectral region (405/520 nm); almost no hit is shown here; Potency, µM (highest dose often 57.5 µM), for the others: top-dose fluorescence increase, hits mostly activators; 75,000 tested, 1.1% active; AID 923, 2007; active = well fitted activation curve with a large enough effect; inconclusive = small, poorly fitted or top-dose-only effect;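 also: potency is read from the fitted curve at half-maximal effect; 0% is about no effect; scaled to a free AFC standard on each plate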
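Baseline compound fluorescence (AFC region, 405 nm ex/520 nm em) taken from the intercept of kinetic reads with 50 nM caspase-1 and 5 uM Ac-WEHD-AFC; normalized to an on-plate AFC standard curve; compounds titrated up to 57 uM.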
A647 autofl: compound autofluorescence in A647 spectral region | AID 592 | 59,000 tested, under 10 active | Compound fluorescence, A647 channel (570/671 nm), Tris buffer | max dye-equivalent concentration, M; active means above 1 µM dye equivalent; inconclusive means 0.1 to 1 µM; inactive means 0.1 µM or less;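 also: values scaled relative to a standard on each plate; highest value over a series up to 38 µM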
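Compound fluorescence was measured in 100 mM Tris buffer, pH 8.0, after 15 min at room temperature, using 570 nm excitation and 671 nm emission filters. Signal was normalized to a per-plate Alexa 647 standard curve and expressed as dye-equivalent concentration at each compound concentration.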
TSHR ag: agonists of human thyroid stimulating hormone receptor | Potency, µM (series often up to 57.1 µM), inactives show at the top dose activation, usual class: activators | AID 926 | HEK293-CNG-TSHR cells (CNG channel as cAMP sensor), membrane potential dye, cAMP | P16473 | 73,000 tested, 0.48% active; active = well fitted activation curve of enough size with the parental cells flat; inconclusive = any curve in the parental cells; inactive = parental cells flat and receptor cells flat or falling; also: potency is read from the fitted curve at half-maximal effect; % of control where 0% means no effect; weak receptor curves with flat parental cells got no call and are not listed
Target sequence (P16473 whole entry, looked up): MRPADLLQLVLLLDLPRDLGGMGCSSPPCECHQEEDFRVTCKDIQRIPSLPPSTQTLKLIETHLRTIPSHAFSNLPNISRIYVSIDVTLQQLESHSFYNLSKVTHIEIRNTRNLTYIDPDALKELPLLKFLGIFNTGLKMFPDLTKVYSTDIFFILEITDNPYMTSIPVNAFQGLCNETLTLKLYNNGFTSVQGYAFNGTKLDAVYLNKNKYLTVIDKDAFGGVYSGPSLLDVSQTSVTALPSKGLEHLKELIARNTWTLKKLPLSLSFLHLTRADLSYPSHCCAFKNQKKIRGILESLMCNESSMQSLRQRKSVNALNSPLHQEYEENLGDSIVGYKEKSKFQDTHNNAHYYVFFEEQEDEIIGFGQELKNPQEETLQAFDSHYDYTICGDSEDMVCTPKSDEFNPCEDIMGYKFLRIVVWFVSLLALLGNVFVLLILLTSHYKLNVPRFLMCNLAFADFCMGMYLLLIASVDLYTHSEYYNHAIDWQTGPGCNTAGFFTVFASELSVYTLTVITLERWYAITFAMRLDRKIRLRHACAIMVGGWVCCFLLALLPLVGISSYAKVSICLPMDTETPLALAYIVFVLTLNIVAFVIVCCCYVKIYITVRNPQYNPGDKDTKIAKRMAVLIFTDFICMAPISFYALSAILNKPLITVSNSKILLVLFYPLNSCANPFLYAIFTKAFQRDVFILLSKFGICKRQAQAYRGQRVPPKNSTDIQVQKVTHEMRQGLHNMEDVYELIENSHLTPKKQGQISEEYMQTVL
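HEK 293 cells stably expressing TSHR and a cAMP-gated CNG channel; parental CNG-only cells as counterscreen. Cells preloaded 60 min with membrane potential dye plus 100 uM RO 20-1724, then compound 30 min; fluorescence read at 590 nm.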
Active calls of the source: *; i = inactive; u = inconclusive; x = no result given; & = joins results of further samples; [ ] = another dose, or the depositor's remark. Some of the compounds tested; the hit share may differ from the screen's.

SMILES	A488 autofl	Resorufin autofl	AID923	A647 autofl	TSHR ag
Cc1c(N/C=C/C(=O)c2cccs2)c(=O)n(-c2ccccc2)n1C	x	x	-0.3%	x	13%
Cc1ccc(-n2nc(C)c3c2OC(N)=C(C#N)C3c2ccncc2)cc1 (stereo not drawn)	i	i	-1.6%	1e-09	-9%
O=C(NCc1ccc2c(c1)OCO2)C1CCC(CNc2c(N3CCCC3)c(=O)c2=O)CC1 (stereo not drawn)	x	x	-4.3%	x	0%
Cc1nnc(C)n1/N=C/c1ccc2c(c1)OCCO2	i	i	-0.5%	2.4e-08	-1%
CCOC(=O)C1CCN(S(=O)(=O)c2ccc3c(c2)CCCN3C(C)=O)CC1	i	i	-1.7%	1e-09	-5%
O=C(NCC1CCCO1)C1CCC(=O)N1CCc1ccccc1 (stereo not drawn)	i	i	1.7%	1e-09	-4%
O=C(COc1ccc(Cl)cc1)N1CCN(C(=O)c2cccc(F)c2)CC1	i	i	0.1%	1.5e-08	u
CCCN(CCO)Cc1ccc(Cl)c(Cl)c1	i	i	0.3%	3.1e-08	15%
N#CC1=C(N)SC2(CCCCC2)SC1c1ccccc1 (stereo not drawn)	i	i	1.4%	3.8e-08	2%
CCOCCCNC(=O)C(c1ccc(C)cc1)N(Cc1ccc2c(c1)OCO2)C(=O)c1cnccn1 (stereo not drawn)	i	i	-0.9%	2e-08	4%
CCOC(=O)C(CC)Sc1nnc2n1C(C)(C)Cc1ccccc1-2 (stereo not drawn)	i	i	1.8%	6.9e-09	u
CC(C)C(OC(=O)c1ccco1)C(=O)NCc1cccs1 (stereo not drawn)	i	i	3.6%	1e-09	-2%
Cc1ccc2nc(NC(=O)Cn3cc4c(n3)CCCCC4)sc2c1	x	x	5.1%	x	u
CCOC(=O)Cc1csc(NC(=O)c2ccc(S(=O)(=O)N3CCCCC3)cc2)n1	i	i	0.9%	1e-09	16%
O=c1c2ccccc2oc2nc(-c3ccco3)n(Cc3ccccc3)c(=O)c12	i	i	-0.6%	4.8e-09	-11%
COc1ccc(C2C=C(C)Nc3nc(SC)nn32)cc1 (stereo not drawn)	i	i	4.3%	1e-09	8%
CCOC(=O)COc1nc(OC)nc(N2CCOCC2)n1	i	i	-0.6%	1.5e-08	9%[11.4 µM]
O=C(CC1CCCC1)Nc1nnc(C2CC2)s1	i	i	-0.1%	2.6e-08	5%
O=C(CSc1nnc(-c2ccncc2)n1CC1CCCO1)NCc1ccccc1 (stereo not drawn)	i	i	-0.8%	2.3e-08	0%
O=C(NCC1COc2ccccc2O1)C1CCC(CNc2c(N3CCCCC3)c(=O)c2=O)CC1 (stereo not drawn)	x	x	-1.2%	x	-3%

Given as labelled records: part of the list above
> O=C(NCC1COc2ccccc2O1)C1CCC(CNc2c(N3CCCCC3)c(=O)c2=O)CC1 (stereo not drawn)
  A488 autofl = x	Resorufin autofl = x	AID923 = -1.2%	A647 autofl = x	TSHR ag = -3%

> CCCN(CCO)Cc1ccc(Cl)c(Cl)c1
  A488 autofl = i	Resorufin autofl = i	AID923 = 0.3%	A647 autofl = 3.1e-08	TSHR ag = 15%

> Cc1c(N/C=C/C(=O)c2cccs2)c(=O)n(-c2ccccc2)n1C
  A488 autofl = x	Resorufin autofl = x	AID923 = -0.3%	A647 autofl = x	TSHR ag = 13%

> O=C(CSc1nnc(-c2ccncc2)n1CC1CCCO1)NCc1ccccc1 (stereo not drawn)
  A488 autofl = i	Resorufin autofl = i	AID923 = -0.8%	A647 autofl = 2.3e-08	TSHR ag = 0%

Other structures follow:
SMILES	A488 autofl	Resorufin autofl	AID923	A647 autofl	TSHR ag
Cc1ccc(Cn2nc(C)c(NC(=O)c3cc(-c4ccco4)on3)c2C)cc1	i	i	0.3%	2.5e-08	10%
COc1ccccc1CNc1cc(-c2cccc(C#N)c2)ncn1	i	i	-0.9%	3.8e-08	x
O=C(c1cccc(S(=O)(=O)N2CCOCC2)c1)N1CCCC1	i	i	1.8%	1e-09	1%
CCCOc1ccc(-c2nc(N)n[nH]2)cc1	i	i	1.2%	1e-09	-4%
CCOC(=O)c1c(CN2CCN(C)CC2)oc2ccc(OC)cc12	i	i	0.8%	2.9e-08	14%
N#Cc1cccc(NC(=O)N2CCC3(CC2)CCN(C(=O)c2cccc(F)c2)CC3)c1	i	i	1.3%	1.1e-08	3%
CC(=O)NCCOc1cccc2ccccc12	i	i	-1.3%	1e-09	-3%
N#C/C(=C1\CCCN1)c1nc(-c2ccccc2)cs1	i	i	0.9%	1e-09	7%
Cc1cccn2c(=O)c3cc(C#N)c(=NC(=O)c4ccc5c(c4)OCO5)n(CC(C)C)c3nc12	i	i	18%	3.6e-08	-2%
CCCC(=O)N(CCc1ccccc1)Cc1nc2ccccc2c(=O)[nH]1	i	i	-0.1%	3e-08	9%
C=CCNc1nc(N(c2ccccc2)c2ccccc2)nc(-n2ccnc2)n1	i	i	-2.4%	1e-09	u
COc1ccc(C2CC(=O)c3cnc(NC(=O)c4ccccc4OC)nc3C2)c(OC)c1 (stereo not drawn)	i	i	5.4%	1.8e-08	u
Nc1nc(-c2nc3ccccc3[nH]2)cs1	i	i	-1.3%	6.4e-09	-2%
COc1ccc(C(=O)N2CCC3(CCCN(C(=O)Nc4cccc(F)c4)C3)CC2)cc1	i	i	0.0%	1.6e-08	x
O=C(NCCCn1ccnc1)c1cc(-c2ccc3c(c2)OCO3)on1	i	i	-4.2%	5.7e-09	6%
Cc1c(C(=O)N2CCOCC2)sc2ncnc(N3CCc4ccccc4C3)c12	i	i	-1.3%	1e-09	12%
Nc1nc(-c2ccc(Cl)cc2Cl)cn1N	i	i	4.7%	2.1e-08	5%
CCc1c(C)nc(SCC(=O)N2CCc3ccccc32)[nH]c1=O	i	i	-0.1%	3e-08	19%
CC1(C)CC(Nc2ccc(Nc3ccccc3)cc2)CC(C)(C)N1	i	i	-0.9%[11.5 µM]	1e-09	-6%[11.4 µM]
Cc1cccc(C2CC(c3ccc(F)cc3)Nc3nc(N)nn32)c1 (stereo not drawn)	x	x	-3.1%	x	1%

Of the compounds above, three contain a Cl atom:
SMILES	A488 autofl	Resorufin autofl	AID923	A647 autofl	TSHR ag
O=C(COc1ccc(Cl)cc1)N1CCN(C(=O)c2cccc(F)c2)CC1	i	i	0.1%	1.5e-08	u
CCCN(CCO)Cc1ccc(Cl)c(Cl)c1	i	i	0.3%	3.1e-08	15%
Nc1nc(-c2ccc(Cl)cc2Cl)cn1N	i	i	4.7%	2.1e-08	5%

Further compounds:
SMILES	A488 autofl	Resorufin autofl	AID923	A647 autofl	TSHR ag
O=C(O)c1cccc(Cl)c1Cl	x	x	-0.9%	x	u
COCCNC(=O)CCCCCN1C(=O)CCC1=O	i	i	-0.2%	5.7e-09	0%
COc1ccccc1Oc1ccc(S(=O)(=O)Nc2cccnc2)cc1	i	i	-1.6%	1e-09	x
O=C(CSc1nc2ccccc2o1)c1ccc2c(c1)OCCO2	i	i	0.3%	1e-09	x
CC(C)NS(=O)(=O)c1ccc(OCC(=O)NCc2cccnc2)cc1	i	i	-0.4%	1e-09	1%
O=C(O)CC(Cc1ccc(Br)cc1)C(=O)O (stereo not drawn)	x	x	3.1%	x	1%
Cc1cccc(NC(=O)CN(C)S(=O)(=O)c2cccc3nsnc23)c1C	i	i	-0.6%	2.2e-08	-6%
CN1CCN(c2ncnc3ccc(-c4ccccc4C#N)cc23)CC1	i	i	-2.1%	3.2e-08	24%
CCCn1c(=O)c2ccccc2n2c(SCC(=O)c3cc(C)n(CC4CCCO4)c3C)nnc12 (stereo not drawn)	i	i	0.2%	1e-09	3%[11.4 µM]
CCC(C)NC(=O)N[C@@H](Cc1ccccc1)C(=O)O (stereo partly drawn)	i	i	-1.1%	2.4e-08	13%
CC(C)CN(CC(C)C)c1nnc(N)s1	x	x	0.7%	x	5%
CC(=O)Nc1ccc(N/C=C/C(=O)c2ccc(C)o2)cc1	i	i	20%	1e-09	-14%
O=C(CSc1ncn[nH]1)Nc1ccccc1C(=O)O	i	i	2.8%	1.2e-08	2%
CCCn1c(-c2ccc(F)cc2)cnc1SCC(=O)O	i	i	3.0%	1.5e-08	-4%
COc1cccc(Oc2nnnn2-c2ccccc2)c1	i	i	-0.7%	2.1e-08	1%[11.4 µM]
Cc1ccc(-c2nnc(SCc3ccccc3F)o2)cc1	i	i	-0.3%	3.7e-08	u
O=C(Nc1cccnc1)c1c(F)cccc1F	i	i	1.2%	3e-09	7%
COc1ccc(-n2cnnc2SC(C)c2nc3sc(C)c(C)c3c(=O)[nH]2)cc1 (stereo not drawn)	i	i	14%	1e-09	3%
O=C(O)CC(NCc1ccco1)C(=O)OCC1CCCO1 (stereo not drawn)	i	i	x	2.1e-08	x
COc1ccc(C(NC(N)=O)c2ccccc2)cc1 (stereo not drawn)	x	x	-1.6%	x	6%

Two entries from above in a different format.
CC(C)NS(=O)(=O)c1ccc(OCC(=O)NCc2cccnc2)cc1
  A488 autofl: i; Resorufin autofl: i; AID923: -0.4%; A647 autofl: 1e-09; TSHR ag: 1%
O=C(Nc1cccnc1)c1c(F)cccc1F
  A488 autofl: i; Resorufin autofl: i; AID923: 1.2%; A647 autofl: 3e-09; TSHR ag: 7%

Next entries.
SMILES	A488 autofl	Resorufin autofl	AID923	A647 autofl	TSHR ag
CC(C)CN1CCCC2(CCN(C(=O)c3csnn3)CC2)C1	i	i	0.6%	1e-09	3%
CCOC(=O)c1c(NC(=O)CSc2nnc(-c3cccnc3)n2Cc2ccco2)sc(C)c1C	i	i	2.4%	2.1e-08	u
N[C@@]1(C(=O)O)CCC[C@@H]1C(=O)O	i	i	3.4%[11.5 µM]	8.8e-09	4%[11.4 µM]
Cc1ccc(OC2C(O)COC2/C=C/C#Cc2ccc(C(C)(C)C)cc2)cc1 (stereo not drawn)	x	x	-1.3%&3.2%[11.5 µM]	x	-5%&-1%[11.4 µM]
O=C1c2ccccc2C(O)(Cc2ccccc2)N1C1CCCCC1 (stereo not drawn)	i	i	-0.9%	1e-09	u
COc1ccc(N(CC(=O)N2CCN(C)CC2)S(C)(=O)=O)cc1OC	x	x	6.6%	x	9%
Cc1nc(N2CCN(C(=O)CCC(=O)O)CC2)c2c(C)c(C)sc2n1	i	i	-1.0%	1e-09	-1%
CCc1nnc(NC(=O)CSc2nnc(COc3ccccc3)n2-c2ccc(C)cc2)s1	i	i	0.0%	1e-09	u
CC(C)C(NC(=O)C1CCCCC1)C(=O)NC1CCN(Cc2ccccc2)CC1 (stereo not drawn)	i	i	0.5%	4.8e-08	0%
O=C(O)Cn1nnn(-c2ccccc2)c1=S	i	i	2.5%	2.8e-08	u
O=C(/C=C\c1ccc2c(c1)OCO2)c1ccc(F)cc1	x	x	0.6%[11.5 µM]	x	12%[11.4 µM]
Cc1ccccc1NC(=O)Cn1nnc(-c2ccc(N3CCOCC3)cc2)n1	i	i	0.2%	1.5e-08	-4%
Cc1c(NC(=O)CN2CCCc3ccccc32)c(=O)n(-c2ccccc2)n1C	i	i	1.3%	3.1e-08	2%
COc1ccc(-n2c(SCC(=O)N3CCCCC3)nc(O)cc2=O)cc1	x	x	-1.5%	x	-11%[11.4 µM]
CSc1nnc([C@H](C)NC(=O)OC(C)(C)C)o1	i	i	2.8%	1e-09	1%
O=S(=O)(NCCSc1ccccc1)c1cccs1	x	x	0.3%	x	-1%[11.4 µM]
O=C(N/C(=N\O)c1ccccc1)Nc1ccc(Cl)cc1	i	i	0.1%	7e-09	u
CCOC(=O)CSc1nnc(Cc2ccccc2)n1Cc1ccco1	i	i	0.3%	1e-09	u
COC(=O)[C@H](Cc1ccccc1)NC(=O)N1CCCCC1C (stereo partly drawn)	i	i	0.4%	1.9e-08	-1%
CCS(=O)(=O)N1CCCC(C(=O)NCCc2ccc(OC)c(OC)c2)C1 (stereo not drawn)	i	i	2.3%	1e-08	-2%
